# Vaccinia pol inh – inhibitors of vaccinia virus processive DNA synthesis (E9 polymerase); AID 493162; actives 0.94% (n = 46,000); normalized absorbance, % (concentration not given with the values); in vitro processive DNA synthesis, absorbance read-out; hits give low values; some inactives read as strong as hits;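 active means replicate mean up to 90% and picked by the depositor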;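 further: 100% = median of the test wells of a plate; 100 nL library stock went into each well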
# Starred values were filed as active, the others as inactive; & = joins results of further samples. The list is partial; the hit share may differ from the screen's.
no.	SMILES	Vaccinia pol inh
1	N#Cc1cnc2c(C(N)=O)cnn2c1N	99.1
2	CSc1nc2ccc(NC(=O)c3ccc(F)c(F)c3)cc2s1	111.5
3	O=S(=O)(c1ccc(C2CCCCC2)cc1)N1CCc2ccccc21	102.8
4	O=C(CCSc1nnnn1-c1ccccc1)Nc1cc(C(F)(F)F)ccc1Cl	99.4
5	Cc1cc(-c2nc(C)c(-c3nnc(SCC(=O)Nc4ccccc4)n3C)s2)no1	100.8
6	Cc1ccc(NS(=O)(=O)c2c(C)nn(C)c2Cl)c(C)c1	72.4
7	O=C(c1ccc2c(c1)OCO2)N(Cc1cccs1)C1(C(=O)NC2CCCC2)CCCCC1	101.9
8	CC1CCCCC1NC(=O)c1cccc2c1SCCC2=O (stereo unspecified)	99.6
9	O=C(Nc1ccc(Cl)c(C(F)(F)F)c1)C(=S)NCc1ccco1	99.7
10	O=C(Nc1ccccc1N1CCCC1)c1cccc(OCc2ccccc2)c1	100.3
11	CN(Cc1ccccc1)C(=O)CCN1C(=O)COc2ccccc21	109.1
12	CC(NC(=O)CSc1ccccc1Cl)C1CC2CCC1C2 (stereo unspecified)	104.0
13	C[N+](C)(C)CCO	102.5
14	CCCc1cc(=O)oc2cc(OCC(=O)O)ccc12	100.4
15	CC(NC(=O)c1c(F)cccc1F)C(c1cccs1)N1CCOCC1 (stereo unspecified)	93.0
16	CCCc1nc2ccccc2n1CC(=O)Nc1ccc(F)cc1	103.6
17	C(=NCC1CCC(CN=Cc2ccco2)CC1)c1ccco1 (stereo unspecified)	100.8
18	COc1ccc(-n2ncc(C(=O)Nc3ccc4nccnc4c3)c2C)cc1	98.3
19	COC(=O)c1cc(S(=O)(=O)NCc2ccccc2)c[nH]1	102.6
20	CCOC(=O)N1CCC(N(CCN(C)C)C(=S)Nc2ccc(C)c(F)c2)CC1	107.8
21	COc1ccc2nc(C(=O)N3CCN(C)CC3)sc2c1	85.1
22	CCCN1CCCc2cc(CN(CCOC)C(=S)Nc3ccccc3OC)ccc21	92.0
23	CO/C(C)=C\c1sc2ccccc2[n+]1C	84.4
24	O=C(COC(=O)c1c(C(F)(F)F)cccc1C(F)(F)F)c1ccc(Cl)cc1	102.9
25	COC(=O)c1sccc1-c1ccc(-c2ccn(C(=O)c3ccc(Cl)cc3)n2)o1	100.5
26	c1ccc2[nH]c(Cc3nc4ccccc4[nH]3)nc2c1	98.7
27	ClCC1Cc2cc(I)c(Cl)cc2O1 (stereo unspecified)	99.9
28	CN1C2CCC1CC(NS(=O)(=O)c1ccc(C#N)cc1)C2 (stereo unspecified)	100.4
29	COc1ccc(SCC(=O)Nc2ccccn2)cc1	100.0
30	C[n+]1c(-c2ccccc2)oc2ccc3[nH]ccc3c21	112.1
31	NC(=O)C1=CN(C(=O)Nc2ccc(Cl)cc2)CCC1C(F)(F)F (stereo unspecified)	103.4
32	O=C(CSc1nnc2ccccn12)Nc1ccc2ccccc2c1	100.4
33	CCOC(=O)c1c(O)c2cccc3c2n(c1=O)CC3	101.9
34	CCC(NC(=O)OC1CCCCC1C)(C(F)(F)F)C(F)(F)F (stereo unspecified)	100.4
35	COc1cccc(C(=O)Nc2ccc3oc(-c4cccc(I)c4)nc3c2)c1	99.9
36	CNC(=O)Cn1ncc2c3ccccc3n(Cc3ccccc3F)c2c1=O	103.7
37	CC(=O)N1CCc2cc(Br)cc(S(=O)(=O)N3CCCC3)c21	97.2
38	Cc1ccc(C)c(C(=O)OCC(=O)N(C)c2ccccc2)c1	98.5
39	O=C(CSc1nc2ccccc2n1CCc1ccccc1)N1CCOCC1	96.0
40	O=C1OC2(CCCCC2)OC(=O)C1=Cc1ccoc1	108.4
41	CCCCc1oc2ccccc2c1C(=O)c1cc(I)c(OCCN(CC)CC)c(I)c1	100.1&92.5
42	CC1(C)S[C@@H]2[C@H](NC(=O)Cc3ccccc3)C(=O)N2[C@H]1C(=O)O	102.0
43	Cc1ccc2oc(=O)n(CCc3noc(-c4cc(C)on4)n3)c2c1	103.3
44	CCCOC(=O)Nc1cccc(C(=O)OCCC)c1	100.5
45	Cc1ccc(Nc2ncc(C(=O)NCCCN3CC(C)CC(C)C3)c3ccccc23)cc1Cl (stereo unspecified)	106.8
46	COc1ccc([C@@H]2CC(=O)c3c(O)cc(O)cc3O2)cc1O	99.6
47	CSc1nc2ccccc2n1N	94.4
48	CCOc1ccc(N2C(=O)C(CC(=O)Nc3ccccc3)N(CCN3CCN(C)CC3)C2=S)cc1 (stereo unspecified)	97.9
49	CCOC(=O)c1ccc(NC(=O)C(Sc2ccccc2)c2ccccc2)cc1 (stereo unspecified)	98.5
50	Cc1ccc(CSc2nc3ccccc3c(=O)n2CCc2ccccc2)cc1	100.8

# (further entries)
no.	SMILES	Vaccinia pol inh
51	C(=NCc1ccco1)c1cn(-c2ccccc2)nc1-c1ccccc1	93.2
52	Cc1cc(C)n2nc(Nc3ccccc3)c(C(N)=O)c2n1	98.7
53	O=C1C2C3C=CC(C3)C2C(=O)N1c1ccccn1 (stereo unspecified)	98.2
54	O=C1OCCC1Sc1nc2ccccc2n1-c1ccccc1 (stereo unspecified)	105.9
55	CCS(=O)(=O)N1CCN=C1SCc1ccc(C(F)(F)F)cc1	112.8
56	O=C(CN1CCN(c2ccccc2)CC1)N1CCCc2ccccc21	121.8
57	CCOC(=O)Nc1nc2c(F)c(F)c(F)cc2s1	93.3
58	Cn1cccc1Cc1nnc(SCC(=O)Nc2ccccc2)n1C	73.8
59	O=C(NC1CCS(=O)(=O)C1)/C(=C/c1ccccc1)NC(=O)c1ccccc1 (stereo unspecified)	94.4
60	CCCN(CCC)c1cccc(C(=O)O)n1	85.8
61	CCOC(=O)/C=C1\NC(=O)C(C)S1 (stereo unspecified)	86.3
62	COCCn1c(=O)sc2ccccc2c1=O	105.4
63	CCN(CC)C(=S)Oc1ccc(C(=O)Nc2cccc3ccccc23)cc1	99.5
64	COc1ccc(OC)c(S(=O)(=O)N2C(C)CCCC2C)c1 (stereo unspecified)	97.7
65	C=CCN(CC=C)C(=O)Cc1ccccc1OC	99.0
66	O=C(c1ccco1)N1N=C2c3ccccc3CCC2C1c1ccc(F)cc1 (stereo unspecified)	101.1
67	Cc1cc(O)cc(O)c1C(=O)COc1ccccc1	91.0
68	O=C1CCCN1CCCNc1nc(-c2cccc(Cl)c2)c2c(n1)-c1ccccc1OC2	99.7
69	Nc1sc2c(c1C(=O)Nc1ccc(Cl)cc1)CCC2	98.9
70	Cn1cnnc1SC1CCCCC1NS(=O)(=O)c1ccccc1 (stereo unspecified)	111.9
71	COc1ccc2cc(C(C)c3nc4ccccc4n3C)ccc2c1 (stereo unspecified)	94.1
72	O=C(O)c1ccccc1C(=O)n1c(COc2ccc(Cl)cc2Cl)nc2ccccc21	100.6
73	CCN1CCN(CCC(=O)Nc2ccccc2)CC1	94.1
74	Cc1ccc(C(N)=S)c(=O)[nH]1	100.0
75	O=C(O)/C=C/C(=O)NC1CCCC(C(F)(F)F)C1 (stereo unspecified)	55.6

# An excerpt of these results, as labelled records.
(69) Nc1sc2c(c1C(=O)Nc1ccc(Cl)cc1)CCC2
  Vaccinia pol inh: 98.9

(58) Cn1cccc1Cc1nnc(SCC(=O)Nc2ccccc2)n1C
  Vaccinia pol inh: 73.8

# Going on with the list:
no.	SMILES	Vaccinia pol inh
76	CSc1c(C#N)c(-c2ccc(Cl)cc2)nn1C	80.2
77	O=C(NCc1cc(F)cc2c1OCOC2)c1cnc2ccccc2n1	99.2
78	COc1ccc(Nc2nc3nonc3nc2N2CCCCCC2)cc1	99.2
79	Cc1ccc(N2CCN(c3ccc(C)cc3)C2c2cccs2)cc1	99.9
80	N/C(=N/O)c1cnc2n(c1=O)CCS2	100.4
81	Cc1cccc(NC(=O)CSc2nccn2-c2ccccc2)c1	102.7
82	Cc1csc(-c2cc3c(ccc4ccccc43)oc2=O)n1	104.1
83	COc1cnc(SC)n(C)c1=O	99.8
84	CCc1ccc(NC(=O)/C=N/O)cc1	99.8
85	COC(=O)c1ccc(COc2cccc(Cl)c2)o1	99.8
86	COCCn1c(SCc2ccccc2)nnc1-c1c[nH]c2ccccc12	101.3
87	O=C(NCC1(c2ccccc2)CCCC1)c1cc2c(=O)[nH]c3ccccc3c2s1	100.9
88	O=C1NC(=Nc2cccnc2)S/C1=C/c1ccc2c(c1)OCO2	96.5
89	N#Cc1ccccc1NC(=O)COC(=O)C1(c2cccc(F)c2)CCCC1	94.0
90	CSc1nc2ccccc2n1CCO	100.4
91	Cc1ccc(CCP(=O)(O)CCC(=O)O)cn1	99.7
92	O=C(O)c1ccc2c(=O)nc3n(c2c1)Cc1ccccc1-3	99.8
93	COc1ccccc1CNC(=O)C(C)Oc1ccccc1 (stereo unspecified)	95.3
94	COc1cc(C(F)(F)F)nc2ccc(C)c(NC(=O)Nc3ccc(OC(F)(F)F)cc3)c12	84.3
95	N=C(N)SCc1ccc(C(F)(F)F)cc1	86.9
96	Cc1[nH]c2ccccc2c1C(=O)COC(=O)C1CCC(=O)N1 (stereo unspecified)	102.7
97	c1csc(-c2cn3ccsc3n2)c1	99.6
98	Cc1cc(CNC(=O)Nc2c(C)noc2C)c(C(F)(F)F)o1	100.9
99	Brc1ccc(OCc2cn3cccnc3n2)c(Br)c1	101.0
100	COc1ccc(N=C2SCC(=O)N2CCc2ccc(OC)c(OC)c2)cc1	102.4
101	N/C(CS(=O)(=O)Cc1ccc(F)cc1)=N\O	101.1
102	CCN1CCN(C(=O)CC2(C(F)(F)F)OCCO2)CC1	97.1
103	O=c1c(Oc2ccccc2)c(C(F)(F)F)oc2cc(O)ccc12	99.4
104	Cc1cccc(SCC(=O)Nc2ccc3c(c2)OCCO3)c1	100.4
105	COc1cc(/C=N/c2c(-c3ccc(O)c(OC)c3)nc3ccccn23)ccc1O	97.6
106	O=C1C(=Cc2c[nH]c3ccccc23)C(=O)c2ccccc21	95.6
107	Cc1c(NC(=O)NCc2ccccc2)c(=O)n(-c2ccccc2)n1C	98.2
108	O=C(c1ccc(-c2nc3ccccc3s2)s1)N1CCOCC1	101.2
109	COc1ccc(-c2nc(=O)c3ccccc3o2)cc1	99.6
110	Cc1ccc(OCC(=O)O)cc1	99.1
111	COc1cc(C2c3cc4c(c(O)c3CC3COC(=O)C32)OCO4)cc(OC)c1O (stereo unspecified)	99.6
112	Cc1cc2ccccc2nc1-c1ccc(F)cc1	119.1
113	Cc1ccc(C)n1CCN1CCN(C(=O)c2ccco2)CC1	101.2
114	Cc1ccc(C(=O)CNc2cccc3ccccc23)cc1	96.9
115	CC(C)(C)C(=O)Nc1ccc(O)c(-c2nc3ccccc3s2)c1	98.9
116	Cc1ccc(-n2cnc3cc(N=Cc4ccc(N(C)C)cc4)ccc32)cc1	100.0
117	O=S(=O)(NCCc1c[nH]c2ccccc12)c1ccc(Cl)c(Cl)c1	88.1
118	CCCN1C(=O)C(O)(C/C(C)=N\O)c2ccccc21 (stereo unspecified)	101.7
119	CN(C)/C=C(\Sc1nnc(N)s1)C(=O)Nc1ccc(F)c(F)c1F	109.0
120	COc1ccc(NS(=O)(=O)c2ccccc2)cc1	100.5
121	COc1ccc(OC)c(-c2nnc(NC(=O)Cc3cccs3)s2)c1	93.1
122	O=C(Cc1ncc(C(F)(F)F)cc1Cl)NCc1ccco1	98.1
123	COC(=O)c1ccc(C2C(Oc3ccc(OC)cc3)C(=O)N2Cc2ccc(F)cc2)cc1 (stereo unspecified)	102.9
124	CCOC(=O)C1C2NC(=S)N(c3ccccc3)C1(C)Oc1ccccc12 (stereo unspecified)	102.9
125	CCOc1cc(CN)c(-n2cccc2)cc1OCC	100.3

# (next part)
no.	SMILES	Vaccinia pol inh
126	CCC(C)NC(=O)C1CCN(c2nc3ccccc3n3cccc23)CC1 (stereo unspecified)	99.8
127	Cc1c(NC(=O)C2CCCC2)c(=O)n(-c2ccccc2)n1C	100.5
128	Cc1cccc(/C=C2\Sc3ccc(C(=O)NCCC(C)C)cc3N(C)C2=O)c1	96.4
129	Cc1csc2c(SCC(O)C(F)(F)F)ncnc12 (stereo unspecified)	94.6
130	NS(=O)(=O)c1ccc(CCn2c(-c3ccccc3)nc(=S)c3c2CCCC3)cc1	100.1
131	Cc1cccc(C2Sc3ccccc3N=C3c4ccccc4C(=O)C32)c1 (stereo unspecified)	99.2
132	O=C1C[C@H](N2C(=O)c3ccccc3S2(=O)=O)C2CO[C@@H]1O2	100.0
133	COC(CN(C)C(=O)c1ccc(CS(=O)(=O)c2ccccc2C)o1)OC	77.2
134	CCCCc1ccc(NC(=O)N=S2CCN(c3ncc(C(F)(F)F)cc3Cl)CC2)cc1	99.9
135	NS(=O)(=O)c1ncn(Cc2ccccc2)n1	100.2
136	CC1=[N+](CCC#N)c2ccccc2C1(C)C	101.0
137	C=CCN(CC=C)C(=O)c1cccc(OC)c1	99.4
138	O=C(NC1=NCCCCCN1)Nc1cccc(Cl)c1	100.0
139	COCc1cc(Cl)nc2cc(NC(=O)C(F)(F)F)c(C)cc12	110.8
140	O=c1cc(N2CCN(c3ccccc3)CC2)[nH]c(=O)n1-c1ccc(Cl)cc1	98.3
141	CCN(CC)S(=O)(=O)c1c(C)cc(C)cc1C	96.8
142	N#CSc1ccc(N)cc1	102.1
143	O=C(c1ccc(F)cc1)N1CCCC2C=CC=CC21 (stereo unspecified)	100.4
144	COC(=O)c1ccc2c(=O)n(-c3ccc(C)cc3)c(Nc3ccccc3)nc2c1	100.5
145	O=C(NCc1ccc(Cl)cc1Cl)c1ccc(Br)o1	100.5
146	N#CC(C#N)c1ccc(C(F)(F)F)cn1	88.6

# Compounds listed so far containing a COOH group, in the order listed:
no.	SMILES	Vaccinia pol inh
14	CCCc1cc(=O)oc2cc(OCC(=O)O)ccc12	100.4
42	CC1(C)S[C@@H]2[C@H](NC(=O)Cc3ccccc3)C(=O)N2[C@H]1C(=O)O	102.0
60	CCCN(CCC)c1cccc(C(=O)O)n1	85.8
72	O=C(O)c1ccccc1C(=O)n1c(COc2ccc(Cl)cc2Cl)nc2ccccc21	100.6
75	O=C(O)/C=C/C(=O)NC1CCCC(C(F)(F)F)C1 (stereo unspecified)	55.6
91	Cc1ccc(CCP(=O)(O)CCC(=O)O)cn1	99.7
92	O=C(O)c1ccc2c(=O)nc3n(c2c1)Cc1ccccc1-3	99.8
110	Cc1ccc(OCC(=O)O)cc1	99.1
